Source: PubChem BioAssay
GALR2 agonist: GALR2 receptor agonists, primary screen, cell-based | GALR2-expressing cells, agonist activation read-out | activation, %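 (tested at 5 µM)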 | 0.48% of 140,000 active | AID 803, 2007;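 active means above mean plus 3 SD of all compounds, about 5% in these data, not always enough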;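 further: 0% = vehicle buffer wells and 100% = reference agonist at full effect; tested in CHO reporter cells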
Target sequence (O43603 whole entry, looked up): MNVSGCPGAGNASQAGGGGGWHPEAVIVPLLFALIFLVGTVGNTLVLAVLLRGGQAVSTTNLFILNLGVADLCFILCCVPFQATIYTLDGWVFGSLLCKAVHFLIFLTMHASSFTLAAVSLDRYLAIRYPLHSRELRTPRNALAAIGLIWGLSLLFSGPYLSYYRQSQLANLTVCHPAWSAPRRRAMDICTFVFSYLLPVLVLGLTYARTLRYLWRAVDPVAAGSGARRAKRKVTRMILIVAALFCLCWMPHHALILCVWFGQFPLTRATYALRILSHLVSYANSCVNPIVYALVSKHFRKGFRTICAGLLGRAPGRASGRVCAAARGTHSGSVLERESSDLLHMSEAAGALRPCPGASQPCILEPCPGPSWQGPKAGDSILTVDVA
RGS16-Gao HTS: modulators of RGS16 binding to Galphao, primary screen, biochemical, human proteins, multiplexed bead flow cytometry; binding response (% of control), % at 10 µM; 0.38% of 220,000 active; Regulator of G-protein signaling 16 (Homo sapiens) + Guanine nucleotide-binding protein …; bead-based flow cytometry RGS16-Galphao binding, fluorescence; actives lie on both sides; AID 1441, 2008;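 active means below 25% or above 175%, edge rows of some plates excepted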;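 further: Galphao activated by GDP with aluminum fluoride before binding; 100% = wells without compound and 0% = beads without RGS; some results beyond the cut were filed as inactive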
Target sequence (O15492 whole entry, looked up): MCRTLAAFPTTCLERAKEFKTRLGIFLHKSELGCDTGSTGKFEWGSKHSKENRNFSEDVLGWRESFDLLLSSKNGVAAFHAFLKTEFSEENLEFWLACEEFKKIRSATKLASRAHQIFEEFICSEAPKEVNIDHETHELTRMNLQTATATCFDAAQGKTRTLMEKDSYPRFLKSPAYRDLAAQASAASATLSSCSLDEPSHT
Target sequence (P09471 whole entry, looked up): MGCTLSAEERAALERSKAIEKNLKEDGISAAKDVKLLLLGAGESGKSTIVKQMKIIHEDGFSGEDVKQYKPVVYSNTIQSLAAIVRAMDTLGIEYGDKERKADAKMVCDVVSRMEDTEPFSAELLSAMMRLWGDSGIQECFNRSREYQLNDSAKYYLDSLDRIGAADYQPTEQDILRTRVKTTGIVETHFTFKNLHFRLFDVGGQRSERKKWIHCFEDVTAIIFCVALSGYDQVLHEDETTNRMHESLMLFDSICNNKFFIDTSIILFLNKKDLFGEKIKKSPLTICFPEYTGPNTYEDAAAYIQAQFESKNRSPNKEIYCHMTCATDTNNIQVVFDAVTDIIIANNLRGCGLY
INS promoter inh: inhibitors of insulin promoter-driven GFP, primary screen, imaging, TRM-6 cells (human fetal islet line), eGFP reporter, cell count; reporter expression induced with tamoxifen; inhibition, % at 2 µM; 0.9% of 130,000 active; AID 1273, 2008;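 active means inhibition above the mean plus 3 SD, with well images judged a real hit on visual review, cut at about 60% in these data, passing the limit was not always enough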
HSV replic up: enhancers of HSV replication in host cells, fold increase, host cell viability; HSV replication augmentation in cells; maximum fold increase; 0.005% of 220,000 active;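 active means peak rise of 1.5-fold or more in the series; tested in PC3 cells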;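 further: first round at 10 µM; read as green reporter fluorescence; hits show the peak of a series up to 25 µM; 1 = signal of infected wells without compound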
PKD1 kinase inh: inhibitors of human PKD1 kinase, biochemical, fluorescence polarization; inhibition, %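 (about 10 µM by stock and volumes)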; PKD1 kinase fluorescence polarization assay; 0.056% of 200,000 active;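 active means inhibition of 50% or more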;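 further: controls were vehicle for no effect and a reference inhibitor for full effect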
INS promoter inh cell count: recorded beside INS promoter inh, whose call it bears; normalized cell count, %; measured here: cell count, toxicity; reference of the scale not given here;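 cells exposed to compound for 48 h; stained nuclei by imaging scaled within each plate; lower means fewer cells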
HSV replic up primary fold: also measured in HSV replic up; calls as there; fold increase; compound at 10 µM; measured here: primary screen fold increase 10 uM; tested in PC3 cells;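 GFP signal in the first replicate; 1 = infected wells without compound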
* marks the source's active call; other numbers are inactive results; i = inactive; nt = no result given.

nr	Structure	GALR2 agonist	RGS16-Gao HTS	INS promoter inh	INS promoter inh cell count
1	COc1ccc(CN2CCn3ncc(C(=O)Nc4ccccc4)c3C2=O)cc1	-0.6	108	-24	62
2	CCN(CC)CCOC(=O)c1cccc(Br)c1	-2.1	103	33	105
3	O=C(Cn1ccc(C(F)(F)F)n1)N=Nc1c(O)[nH]c2ccccc12	nt	100	nt	nt
4	Cc1cccc(C)c1NC(=O)COn1nnc2ccc(C(F)(F)F)cc21	-1.5	81	7	121
5	CCOc1ccc(-c2c(=O)n(OCc3nc4ccccc4[nH]3)c3ccccc3[n+]2[O-])cc1	nt	100	nt	nt
6	Cc1nc2ccccc2nc(C)c1=NOCc1cccc(Cl)c1	nt	100	nt	nt
7	CCOC(=O)/C=c1\s/c(=C\c2c(OCC)ccc3ccccc23)c(=O)n1CC(=O)NCC1CCCO1 (centres undefined)	-1.1	103	-185	104
8	O=S(=O)(c1cc(Cl)sc1Cl)N1CCCC1	nt	101	nt	nt
9	CC(=O)N1CCN(C(=S)Nc2ccc(SC(F)F)cc2)CC1	nt	105	nt	nt
10	CCOC(=O)c1sc2nc(N3CCOCC3)c3c(c2c1N)CC(C)(C)N(C)C3	-0.7	101	-32	97
11	O=C(CC12CC3CC(CC(C3)C1)C2)NCC(=O)N1CCCC1	-2.0	105	-314	71
12	CCOC(=O)c1c(C)c(C(=O)N2CCN(c3cccc(Cl)c3)CC2)c(C)n1C	-1.0	100	nt	nt

nr	HSV replic up	HSV replic up primary fold	PKD1 kinase inh
1	i	1	-9
2	i	0.99	-2
3	i	0.85	-6
4	i	0.77	2
5	i	0.96	nt
6	nt	nt	0
7	i	0.98	-4
8	i	1	nt
9	i	0.87	-6
10	i	1.1	0
11	i	1.1	4
12	i	0.78	12

Results in PKD1 kinase inh and INS promoter inh cell count, for some of the entries so far:
item	smiles	PKD1 kinase inh	INS promoter inh cell count
7	CCOC(=O)/C=c1\s/c(=C\c2c(OCC)ccc3ccccc23)c(=O)n1CC(=O)NCC1CCCO1 (centres undefined)	-4	104
9	CC(=O)N1CCN(C(=S)Nc2ccc(SC(F)F)cc2)CC1	-6	nt
3	O=C(Cn1ccc(C(F)(F)F)n1)N=Nc1c(O)[nH]c2ccccc12	-6	nt
2	CCN(CC)CCOC(=O)c1cccc(Br)c1	-2	105
12	CCOC(=O)c1c(C)c(C(=O)N2CCN(c3cccc(Cl)c3)CC2)c(C)n1C	12	nt

More structures.
nr	Structure	GALR2 agonist	RGS16-Gao HTS	INS promoter inh	INS promoter inh cell count
13	Cn1cc(C=O)c2cc(S(=O)(=O)N3CCOCC3)ccc21	-1.8	6	50	79
14	O=C(COc1ccccc1)NN1C(=O)CSC1=S	nt	101	nt	nt
15	COC(=O)c1c(NC(C)=O)sc(C(=O)Nc2ccccc2OC)c1C	nt	107	-14	97
16	COc1ccc(Nc2nnc(-c3ccc(N4CCOCC4)c([N+](=O)[O-])c3)c3ccccc23)cc1	-1.1	103	7	128
17	Cc1ccc(C(=O)Nc2cccc(C(=O)NCc3ccccc3)c2)o1	-1.8	101	nt	nt
18	Oc1cccc2ccc[n+](CC(O)Cn3c4ccccc4c4ccccc43)c12 (centres undefined)	-2.1	129	-27	57
19	CC(=O)c1c(N2CCN(Cc3ccccc3)CC2)nc(=S)n(Cc2ccccc2)c1C	-1.1	102	-21	151
20	COc1ccc(C(=O)NCC(c2ccc(F)cc2)N2CCOCC2)cc1S(=O)(=O)N1CCCC1 (centres undefined)	0.4	109	64	49
21	O=C(COC(=O)c1ccccc1C(=O)c1ccc(Cl)cc1)NCc1ccccc1	1.5	101	nt	nt
22	CC12COC3(P(=O)(c4ccccc4)c4ccccc4)CC1CCC23CP(=O)(c1ccccc1)c1ccccc1 (centres undefined)	nt	101	nt	nt
23	Cc1cc(=O)oc2cc3c(cc12)OCCO3	-1.1	106	-28	114
24	Cc1nc(C(=O)Nc2ccc(Cl)cc2)sc1C1(C)CC(c2ccccc2)=NO1 (centres undefined)	nt	104	nt	nt

nr	HSV replic up	HSV replic up primary fold	PKD1 kinase inh
13	i	0.98	14
14	i	1	-8
15	i	0.96	7
16	i	0.77	14
17	i	0.98	0
18	i	0.7	-6
19	i	1.1	2
20	i	0.79	-7
21	i	0.93	-4
22	i	0.91	-6
23	i	0.87	6
24	i	1.1	nt

nr	Structure	GALR2 agonist	RGS16-Gao HTS	INS promoter inh	INS promoter inh cell count
25	COc1ccccc1-c1cc(C(=O)Nc2cc(C)nn2-c2ccccc2)no1	-0.6	112	-49	90
26	COCCn1c(C)cc(C(=O)COC(=O)c2ccc(N3CCCC3=O)cc2)c1C	0.0	95	-30	117
27	O=C(O)c1ccc(N/N=C/c2cccc3nccnc23)cc1	nt	102	nt	nt
28	COc1ccc(OC)c(N/C(=N/C(=S)Nc2ccccc2)Nc2nc(C)cc(C)n2)c1	nt	78	nt	nt
29	CC1Cc2ccccc2N1C(=O)Cn1cnc2ccccc2c1=O (centres undefined)	-1.9	112	-23	102
30	CCOCCCNC(=O)CCC(=O)NNc1nc2ccccc2c2nc(C)nn12	nt	101	-143	131
31	Cc1nn2c(C)c(C(=O)Nc3ccccc3)cnc2c1-c1ccccc1	nt	103	nt	nt
32	CCn1c(SCC(=O)N2c3ccccc3CCc3ccccc32)nnc1-c1ccc(OC)cc1	0.6	99	-35	82
33	CC(CC(=O)N1CCN(c2ccccc2)CC1)c1ccccc1 (centres undefined)	-0.1	66	-107	35
34	Cc1ccc(-c2nnc(SCC(=O)Nc3cccc(C(=O)N4CCOCC4)c3)n2C)cc1	-2.5	106	12	86
35	COCCn1c(C)nc2oc3ccc(Br)cc3c(=O)c2c1=O	-0.9	95	54	85
36	O=C(NC1=NC2CCCCC2N1)c1ccccc1 (centres undefined)	-2.4	109	27	110

nr	HSV replic up	HSV replic up primary fold	PKD1 kinase inh
25	i	0.54	-6
26	i	0.79	-11
27	i	1	nt
28	i	0.98	nt
29	i	0.97	-3
30	i	0.98	0
31	i	1	nt
32	i	1.1	17
33	i	1	2
34	i	1	-12
35	i	1	10
36	i	0.94	-12

nr	Structure	GALR2 agonist	RGS16-Gao HTS	INS promoter inh	INS promoter inh cell count
37	COc1ccc(NC(=O)Cn2c(=O)n(-c3ccc(OC)cc3OC)c(=O)c3c(C)c(C)sc32)cc1	-2.4	98	11	107
38	CN1CCN(C(=O)C2=C[C@@H](c3ccc(C(F)(F)F)cc3)C[C@@H](OCc3ccc(CO)cc3)O2)CC1	nt	98	nt	nt
39	O=C(OCc1ccc2c(c1)OCO2)c1ccc(S(=O)(=O)N2CCCCC2)cc1	-0.2	102	-36	31
40	Cc1cc(C(F)(F)F)n(-c2nc(C(=O)NNS(=O)(=O)c3ccccc3[N+](=O)[O-])cs2)n1	nt	97	nt	nt
41	O=C(COC(=O)CCCSc1nc2ccccc2[nH]1)Nc1ccc(Cl)cc1	-0.7	111	14	78
42	Cc1cccc(C)c1OCC(O)Cn1c2ccccc2c2ccccc21 (centres undefined)	-2.5	100	nt	nt
43	COc1ccc(/C=N/NC(=O)c2ccncc2)cc1CSc1nc2ccccc2s1	0.8	97	nt	nt
44	CC(C)CCN1CCN(Cc2ccsc2)CC1CCO (centres undefined)	nt	105	nt	nt
45	CS(=O)(=O)N(C(=O)NC(=O)NC12CC3CC(CC(C3)C1)C2)C1CCCCC1	nt	104	nt	nt
46	CCOc1cc(C(=O)NC(C)CC)cc(OCC)c1OCC (centres undefined)	-0.7	103	41	74
47	O=C(C1CCN(S(=O)(=O)N2CCOCC2)CC1)N1CCN(c2ccccc2F)CC1	nt	101	nt	nt
48	CC(C)CC(c1nnnn1CC1CCCO1)N1CCN(c2cccc(Cl)c2)CC1 (centres undefined)	-2.4	105	nt	nt

nr	HSV replic up	HSV replic up primary fold	PKD1 kinase inh
37	i	0.98	-5
38	i	0.85	10
39	i	0.95	-10
40	i	0.94	4
41	i	1	0
42	i	0.92	-5
43	i	0.81	-4
44	i	1.1	-2
45	i	0.91	-8
46	i	0.88	0
47	i	0.94	-4
48	i	1.1	-3

nr	Structure	GALR2 agonist	RGS16-Gao HTS	INS promoter inh	INS promoter inh cell count
49	COc1cccc(CNC(=O)CCC2CCCN(C3CCOCC3)C2)c1 (centres undefined)	nt	96	nt	nt
50	CC(C)c1ccc(N=C2NN=C(c3cccs3)CS2)cc1	nt	99	-7	76
51	O=C(c1cccc(Oc2ccccc2)c1)N1CCN(c2ccccn2)CC1	nt	104	nt	nt
52	Cc1ccc2nsnc2c1NC(=O)c1sc2ccccc2c1Cl	2.1	103	19	125
53	O=C(c1cccn(Cc2ccc(Cl)c(Cl)c2)c1=O)N1CCOCC1	-3.7	106	7	121
54	O=C(CCCN1C(=O)/C(=C\c2cccc(Br)c2)SC1=S)Nc1cccnc1	nt	98	nt	nt
55	Cc1onc(-c2ccccc2)c1C(=O)Nc1nc(-c2ccccc2)cs1	-0.1	58	20	69
56	Cc1ccc(C)c(NC(=S)N(C2CCCCC2)C(C)c2cccnc2)c1 (centres undefined)	nt	96	nt	nt
57	Cc1cc(C)cc(N2CC(O)=C(c3nc4ccccc4c(=O)[nH]3)C2=N)c1	nt	102	-43	94
58	CCOC(=O)C1(CCOc2ccccc2)CCN(Cc2cccc3c2OCO3)CC1	nt	100	nt	nt
59	CC(C)COc1ccc(-c2cc(C(=O)NN)[nH]n2)cc1	-1.8	167	53	64
60	COc1ccc(CN(C)C(=O)CCl)cc1	nt	112	-6	112

nr	HSV replic up	HSV replic up primary fold	PKD1 kinase inh
49	i	0.78	-9
50	i	0.96	-6
51	i	0.92	1
52	i	0.92	-2
53	i	0.76	-8
54	i	1	5
55	i	0.92	-3
56	i	1	nt
57	i	0.86	-12
58	i	0.85	-2
59	i	0.98	-8
60	i	1.1	-7

nr	Structure	GALR2 agonist	RGS16-Gao HTS	INS promoter inh	INS promoter inh cell count
61	COc1cc(S(=O)(=O)Nc2ccc(C)cc2)ccc1N=Cc1c(C)c(C#N)c(=O)n(C)c1O	nt	89	nt	nt
62	Cc1nc(-c2cccc(Cl)c2)n[nH]1	nt	98	nt	nt
63	Cn1cccc1/C=C1\SC(=S)N(NC(=O)c2ccccc2)C1=O	-1.7	100	36	58
64	CC1=CC(C)C2(COC(=O)Nc3ccccc3)COC(C)C1C2C (centres undefined)	nt	108	-36	69
65	COc1ccc(CCNc2cc(C)nc3c(-c4ccc(Cl)cc4)cnn23)cc1OC	-0.3	96	-2	81
66	CCNC(=O)COC(=O)c1cccc(Br)c1	nt	105	nt	nt
67	N#CC(C#N)=C1C(=O)N(CCN2CCOCC2)c2ccccc21	nt	102	nt	nt
68	O=C(NCCC1=CCCCC1)N[C@@H](Cc1ccccc1)C(=O)O	-1.0	55	-46	100
69	CCOC(=O)C1CCCN(C(=O)c2ccc(Cl)cc2)C1 (centres undefined)	nt	100	nt	nt
70	CCC(C)(C)NC(=O)C(c1ccc(C)cc1)N(CC1CCCO1)C(=O)CNC(=O)c1cccs1 (centres undefined)	-0.2	105	-36	101
71	NNC(=O)c1cc2cc3ccccc3nc2s1	nt	103	13	102

nr	HSV replic up	HSV replic up primary fold	PKD1 kinase inh
61	i	0.99	-2
62	i	0.91	nt
63	i	1.1	-8
64	i	1	-4
65	i	1.2	6
66	i	0.81	nt
67	i	0.97	nt
68	i	0.9	-4
69	i	1.1	-3
70	i	0.86	8
71	i	0.93	4

2 entries picked at random from those above:
nr	Structure	GALR2 agonist	RGS16-Gao HTS	INS promoter inh	INS promoter inh cell count
63	Cn1cccc1/C=C1\SC(=S)N(NC(=O)c2ccccc2)C1=O	-1.7	100	36	58
65	COc1ccc(CCNc2cc(C)nc3c(-c4ccc(Cl)cc4)cnn23)cc1OC	-0.3	96	-2	81

nr	HSV replic up	HSV replic up primary fold	PKD1 kinase inh
63	i	1.1	-8
65	i	1.2	6
